RN4220 kill: S. aureus RN4220 growth inhibition; OD600, 16 h; inhibition, % (test concentration not listed); hit rate 0.33% among 330,000; AID 1259311;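 active = z-score of -3 or lower and OD600 up to 0.18 on both plates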;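 also: plate controls were untreated cells for no effect and reference antibiotic for full effect; stock transfer was 100 nL into about 80 µL; one replicate is shown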
BJeLR lethal: BJeLR cell viability loss; BJeLR (HRASV12) viability, CellTiter-Glo ATP luminescence, 48 h; reference of the scale not given here; inhibition, % (test concentration not listed); hit rate 0.17% among 300,000;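 active = replicate mean above 50%; inconclusive = above 50% but judged a plate artefact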;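 also: 50 nL library stock added to about 25 µL; numbers are from one replicate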
Autofluor counter: flagged as autofluorescent in microsphere protease counterscreen; compound autofluorescence counterscreen, microsphere flow cytometry; stronger effect = higher value; hit rate 3.1% among 360,000; AID 624483; fluorescence intensity (concentration not given with the values);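 active = at least 3 SD above the mean of all compounds, about 16000 in these data; inconclusive = too few beads counted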;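 also: 100 nL of 1 mM stock went into each well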
ugtP null kill: compounds lethal to S. aureus RN4220 ugtP deletion mutant. hit rate 0.54% among 330,000. growth inhibition, % (no concentration beside the values). AID 1259309. OD600 growth, 16 h; some inactives read as strong as hits;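 active = z-score under -3 and OD600 up to 0.15 on both plates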;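 also: plate controls were untreated wells for no effect and antibiotic for full effect; wells of about 80 µL received 100 nL stock; the first replicate is given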
PrP UTR inh: suppresses PrP 5' UTR mRNA reporter expression; cell-based PrP 5' UTR mRNA reporter, plate reader; inhibition, % (concentration not given with the values); hit rate 0.35% among 340,000;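 active = every replicate at 50% or more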;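 also: 0 = median of the neutral control wells; tested in H4 reporter cells; numbers are from one replicate; inactives centre near -14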
Mtb hypoxia rep: reduces hypoxia-regulated biosensor signal in M. tuberculosis; M. tuberculosis hypoxia-regulated fluorescent reporter, fluorescence; fluorescence inhibition, % (test concentration not listed); hit rate 0.1% among 300,000; AID 1159583;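 active = 35 to 45% if threefold the growth effect, above 45% if 1.5-fold the growth effect; inactive = the rest, general growth blockers included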;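 also: wells of about 50 µL received 100 nL stock; 0% = vehicle wells and 100% = reference inhibitor wells; whole bacteria with a GFP reporter of the hypoxia response; strong numbers were not always called active; many hits fall short of the cut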
Mtb hypoxia rep growth: recorded beside Mtb hypoxia rep, whose call it bears; growth inhibition, %; measured here: M. tuberculosis growth (absorbance);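 0% = vehicle and 100% = reference antibiotic; read after six days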
* hit, by the source's call; ? = inconclusive; nt = not tested or not shown. Rows were taken by chance. About 3.9% of those tested had a hit in this group.

SMILES | RN4220 kill | BJeLR lethal | Autofluor counter | ugtP null kill | PrP UTR inh | Mtb hypoxia rep | Mtb hypoxia rep growth
COc1ccc(CCNC(=O)CCS(=O)(=O)c2ccc3c(c2)NC(=O)CO3)cc1OC | 0.2 | 4 | 4992 | 5 | -8 | 10 | 5
CCC(CC)NC(=O)c1ccccc1Oc1ccccc1 | 2.9 | 6 | 2329 | 0 | -5 | nt | nt
COc1cc(NC(=O)c2ccccc2Cl)c(OC)cc1NC(=O)CN1CCCCC1 | 0.6 | -1 | 4556 | -4 | -19 | -10 | -4
NS(=O)(=O)c1ccc(CNC(=O)c2ccc(NS(=O)(=O)c3cccs3)cc2)cc1 | 4.7 | nt | ? | 4 | -6 | 3 | 3
S=C(Nc1cccc(Cl)c1Cl)NC1CCN(Cc2ccccc2)CC1 | -2.8 | nt | 5631 | -1 | -12 | -9 | -5
COc1ccc(OC)c(NC(=O)CNC(=O)Cn2cnc3ccccc3c2=O)c1 | 1.4 | 0 | 2501 | 0 | -15 | nt | nt
O=C(NCCc1c[nH]c2ccccc12)/C(=C\c1cccs1)NC(=O)c1ccccc1 | 9.1 | 6 | 2605 | -5 | -14 | -4 | 1
Cc1cc(C(=O)NN=Cc2ccc(-c3cccc(Br)c3)o2)n[nH]1 | 4.3 | nt | nt | -5 | nt | 6 | 8
CC(=NNC(=O)c1ccc([N+](=O)[O-])cc1)c1c(O)cc(C)oc1=O | 2.5 | nt | nt | 1 | nt | 7 | 12
C=CCNC(=O)CCCC(=O)NCC=C | 5.8 | 2 | 9611 | 2 | -18 | 2 | -1
O=C(CCC(=O)N(CC(=O)NC1CCCC1)Cc1cccs1)Nc1nccs1 | 13 | -10 | 4089 | 5 | -12 | 4 | 14
COc1ccc(/C(O)=C2/C(=O)C(=O)N(CC3CCCO3)C2c2ccc(OC)c(OC)c2)cc1 (stereo unspecified) | 3.1 | -5 | 4079 | 1 | -9 | 7 | 4
O=C(NN=Cc1cc(Br)ccc1O)Nc1ccccc1 | -3.2 | nt | nt | -27 | nt | 5 | 7
CCC(C)(C)NC(=O)C(c1cccc(OC)c1OC)N(C(=O)CCC(=O)Nc1cc(C)on1)c1ccc2c(c1)OCCO2 (stereo unspecified) | 2.9 | -1 | 3633 | 0 | 2 | 7 | 10
CS/C(N)=N/S(=O)(=O)c1ccc(NC(C)=O)cc1 | 0.9 | -7 | 4051 | -2 | -15 | -2 | 7
Cc1c(NC(=O)CSc2nnnn2-c2ccc(O)cc2)c(=O)n(-c2ccccc2)n1C | 3.8 | -4 | 23720* | 0 | -10 | 3 | 7
O=C(COC(=O)c1ccccc1-n1cnnn1)c1ccc(F)c(F)c1 | 3.3 | -7 | 5142 | 9 | -30 | 5 | 8
NC(=O)c1nsc(C(=O)N(CC(=O)NC2CCCC2)Cc2ccc3c(c2)OCO3)c1N | nt | -6 | 3381 | nt | -19 | nt | nt
CS(=O)(=O)N1CCN(CCN2C(=O)c3cccc4cccc(c34)C2=O)CC1 | -0.1 | 2 | 4246 | -1 | -17 | 7 | 2
COc1ccc(N2C(=O)CC(Sc3ncccc3C(=O)O)C2=O)cc1 (stereo unspecified) | 9.6 | 7 | 9797 | 1 | -10 | 5 | 6
Cc1cc2occ(CC(=O)N(C)CC(=O)Nc3ccccc3Br)c2cc1C | 3.1 | -9 | nt | -4 | -17 | -9 | -2
CCOC(=O)C1(Cc2cccc(OC)c2)CCCN(Cc2cnn(C)c2)C1 (stereo unspecified) | -0.9 | -1 | 2655 | 10 | -21 | 6 | 5
CCOC(=O)c1c[nH]c(=O)c(Br)c1O | 2.3 | -2 | 2012 | 6 | -9 | 4 | 6
Cc1cnn(-c2cc(N/N=C/c3cccc(F)c3)ncn2)c1 | nt | -12 | 7261 | nt | -18 | nt | nt
CN(C)c1ccc(S(=O)(=O)N2CCCCC2)cc1NC(=O)CCNC(=O)c1ccc(Cl)cc1 | -4.8 | nt | 6372 | 7 | -22 | 11 | 9
O=C(NCc1ccco1)C1CC(c2cc(C(F)(F)F)cc(C(F)(F)F)c2)=NO1 (stereo unspecified) | 0.1 | 6 | 2744 | -4 | -27 | 0 | 2
Cc1cc(C)n2nc(SCC(=O)N3CCOCC3)nc2n1 | 0.0 | nt | 2888 | 1 | -15 | -8 | 0
COc1ccc(N(C(=O)CCC(=O)Nc2cc(C)on2)C(C(=O)NC2CCCC2)c2ccco2)cc1 (stereo unspecified) | 1.6 | 2 | 3758 | 1 | -18 | 3 | 7
CCS(=O)(=O)c1ccc2oc(SCC(=O)Nc3ccc(OC)c(OC)c3)nc2c1 | 4.9 | 4 | 4930 | -2 | -22 | 12 | 5
COc1ccc(C(C)=O)cc1CN1C(=O)NC(CC(C)C)C1=O (stereo unspecified) | 6.6 | -1 | 4408 | 11 | -64 | 15 | 10
O=C(COc1ccc(S(=O)(=O)N2CCCCC2)cc1)Nc1ccccc1F | 0.8 | 7 | 5296 | 2 | -11 | -1 | 4
CCC(C)n1c(SCC(=O)NCc2ccco2)nnc1-c1cccc(S(=O)(=O)N2CCOCC2)c1 (stereo unspecified) | -0.1 | 6 | 2207 | 0 | -10 | nt | nt
CCOc1cccc(SCc2noc(C(=O)NCCOC)c2C(=O)O)c1 | 6.2 | 0 | 3704 | -8 | -12 | 12 | 8
Cc1ccc(-c2noc(CNC(=O)c3ccc4c(c3)OCO4)n2)cc1 | -7.8 | 5 | 3979 | -1 | 4 | -6 | -8
Cc1ccc(C2/C(=C(\O)c3ccc4c(c3)OCCO4)C(=O)C(=O)N2Cc2cccnc2)cc1 (stereo unspecified) | 0.8 | -6 | 6364 | 1 | -15 | 6 | 1
COc1cccc(CN(CC(=O)NCc2ccccc2)S(=O)(=O)CCl)c1 | 5.9 | nt | 3804 | 0 | -21 | 8 | 6
Nn1cc(-c2ccccc2)nc1SCC(=O)NCC1CCCO1 (stereo unspecified) | 4.5 | 10 | 3302 | 8 | -73 | 7 | 2
CCC(=O)N1CCN(c2cc(N3CCN(C)CC3)c(F)cc2[N+](=O)[O-])CC1 | 3.9 | 11 | 2194 | 10 | -19 | 0 | 3
CCCCSc1n[nH]c(=S)c2nc[nH]c12 | -1.3 | nt | 3343 | 1 | -13 | 2 | -1
CC[C@H](C)[C@H](NC(=O)[C@H](Cc1ccc(O)cc1)NC(=O)[C@@H](N)C(C)C)C(=O)N[C@@H](Cc1cnc[nH]1)C(=O)N1CCC[C@H]1C(=O)N[C@@H](Cc1ccccc1)C(=O)O | nt | 5 | 6113 | nt | -12 | nt | nt

Single records (already shown). Order of screens: RN4220 kill, BJeLR lethal, Autofluor counter, ugtP null kill, PrP UTR inh, Mtb hypoxia rep, Mtb hypoxia rep growth
CCC(=O)N1CCN(c2cc(N3CCN(C)CC3)c(F)cc2[N+](=O)[O-])CC1 reads 3.9, 11, 2194, 10, -19, 0, 3
Cc1cc(C)n2nc(SCC(=O)N3CCOCC3)nc2n1 reads 0.0, nt, 2888, 1, -15, -8, 0
COc1ccc(N(C(=O)CCC(=O)Nc2cc(C)on2)C(C(=O)NC2CCCC2)c2ccco2)cc1 (stereo unspecified) reads 1.6, 2, 3758, 1, -18, 3, 7
CN(C)c1ccc(S(=O)(=O)N2CCCCC2)cc1NC(=O)CCNC(=O)c1ccc(Cl)cc1 reads -4.8, nt, 6372, 7, -22, 11, 9

The listing continues:
SMILES | RN4220 kill | BJeLR lethal | Autofluor counter | ugtP null kill | PrP UTR inh | Mtb hypoxia rep | Mtb hypoxia rep growth
CCc1ccc(NC(=O)Cn2c(=O)c3cccn3c3ccccc32)cc1 | -5.9 | 1 | 5787 | 2 | -14 | -3 | 2
CN(CCCCCCN(C)Cc1ccccc1O)Cc1ccccc1O | 3.9 | 7 | 3193 | 3 | -16 | 7 | 6
COC(=O)C1=C(c2cccc(OC)c2OC)C[C@@H]2CC[C@H]1N2C(=O)NCc1ccc(F)cc1 | nt | 7 | 3945 | nt | -12 | nt | nt
COc1ccccc1CC(=O)N1CCN(c2ccccc2F)CC1 | 3.3 | -19 | 3634 | 4 | 11 | 11 | 7
C1=CC2c3ccccc3NC(c3ccncc3)C2C1 (stereo unspecified) | 2.0 | -9 | 8360 | -14 | -10 | -3 | 0
CCOC(=O)c1cnc(SCC(=O)OC)nc1N | 7.1 | nt | 4630 | 7 | -9 | 19 | 11
COc1cccc(CNC(=O)c2ccccc2SCC(=O)N2CCCC2)c1 | -6.8 | 10 | nt | 5 | -79 | -1 | -1
Cc1ccc(S(=O)(=O)NN=Cc2ccc(O)cc2O)cc1[N+](=O)[O-] | 3.0 | nt | nt | -2 | nt | 4 | 1
COc1ccc(NS(=O)(=O)c2cccc(C(=O)NCCc3ccc(S(N)(=O)=O)cc3)c2)cc1 | 3.3 | nt | 8737 | 0 | -32 | 3 | -3
CC(=O)NCCc1ccc(O)cc1 | 1.3 | -6 | 4268 | 8 | -8 | nt | nt
COc1cc(C(=O)Nc2c(C(=O)O)[nH]c3ccc(C)cc23)cc(OC)c1OC | 1.7 | -3 | 3106 | 14 | -23 | 0 | -5
CCCCCC(=O)NN=Cc1cccs1 | 0.1 | nt | nt | -3 | nt | 6 | 12
O=C(Nc1ccccc1Cl)c1ccc2nsnc2c1 | 4.6 | -3 | 2263 | 9 | -89 | 1 | -1
O=C(CSc1nnc2ccc(-c3ccccn3)nn12)Nc1ccccc1F | 5.5 | 19 | 5432 | 2 | -15 | 5 | 4
C/C(=N\NC(=O)c1c(Cl)cnn1C)c1cccc(NC(=O)COc2ccccc2)c1 | nt | -11 | 3152 | nt | -26 | nt | nt
CCc1nc(SCC(=O)NNC(=O)c2ccc(OC)cc2)c2ccccc2n1 | 3.2 | 7 | 4619 | 5 | -23 | 10 | 1
O=C(Nc1ccncc1)Nc1ccc(F)c(Cl)c1 | -29 | 3 | 3373 | 2 | -6 | 7 | 0
Cc1ccc(-c2nn(-c3ccccc3)cc2NC(=O)CCl)cc1 | 8.1 | -3 | 4076 | 0 | -12 | 22 | 33
Cc1ccc(OC(=O)CCC(=O)Nc2ccc(S(=O)(=O)Nc3cc(C)on3)cc2)cc1 | 5.4 | -7 | 5759 | 5 | -11 | 4 | -4
Cc1ccc(S(=O)(=O)N2CCN(C(=O)CN3C(=O)c4ccc([N+](=O)[O-])cc4C3=O)CC2)cc1C | 3.3 | nt | nt | 7 | -12 | 0 | -3
O=C(CN1C(=O)CCC1=O)Nc1ccc2c3c(cccc13)CC2 | -0.6 | -5 | 3979 | 0 | -12 | nt | nt
COc1ccc([N+](=O)[O-])cc1NC(=O)c1ccccc1N(C)S(C)(=O)=O | 4.7 | -7 | 2404 | 14 | -4 | 13 | -1
COCC(=O)Nc1cc(C)cn(Cc2ccc(F)cc2)c1=O | 2.8 | -7 | 3827 | 9 | -27 | 9 | 4
Cc1cc(C)c(C)c(S(=O)(=O)NC(C(=O)O)C(C)C)c1C (stereo unspecified) | 3.1 | 0 | 4630 | 9 | -22 | 0 | 2
CCCCn1c(NC(=O)c2ccccc2)nc2ccccc21 | 31 | -7 | 5988 | 3 | -7 | 2 | -1
O=C(COc1cccc2cccnc12)NN=C1SCC(=O)N1Cc1ccco1 | -17 | nt | nt | -5 | nt | 11 | 3
COc1cccc(Oc2ccc(S(=O)(=O)N3CCCC3)cc2[N+](=O)[O-])c1 | nt | 4 | 4550 | nt | 7 | nt | nt
COc1ccnc(Oc2ccc(F)cc2)c1C(=O)N/C=N/OCc1c(Cl)cccc1Cl | 8.5 | -7 | 12082 | -10 | -8 | 5 | 9
O=C(NNc1ccc(Cl)cc1)c1c(F)cccc1Cl | 2.0 | 3 | 4426 | 11 | -9 | 11 | 9
COc1ccc(N2CCN(C(=O)CSc3nnc(-c4ccco4)n3C)CC2)cc1 | 4.9 | 4 | nt | 9 | nt | 14 | -7
COc1ccc([C@@H]2C[C@H](c3ccccc3)Oc3cc(C)cc(C)c32)cc1 | nt | 7 | 3531 | nt | -11 | nt | nt
O=C(COc1cc2oc(=O)c3c(c2cc1Cl)CCC3)Nc1ccccn1 | 0.9 | 1 | 5706 | -4 | -10 | -4 | -6
O=C1CSC(=S)N1Cc1cccnc1 | 11 | 39 | 3133 | -2 | -32 | 21 | 18
COc1ccccc1CC(NC(C)=O)C(=O)NC1CCN(C(=O)c2ccc(C)cc2)CC1 (stereo unspecified) | 0.8 | 2 | 5129 | 4 | -11 | -12 | -2
O=[N+]([O-])c1ccc(Oc2cccnc2)nc1 | 0.7 | -17 | 6697 | -4 | -12 | -8 | -3
CCOc1cccc(N2C(=O)/C(=C/c3ccco3)C(=O)NC2=S)c1 | 6.4 | -8 | 3646 | -3 | 3 | 3 | 3

Bioassay records deposited in PubChem by several laboratories.
